YopH inh – blocks Yersinia enterocolitica YopH tyrosine phosphatase | AID 898 | inhibition, %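 (about 10 µM by stock and volumes)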 | fluorescence Ex485/Em525 | 0.16% of 140,000 active;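 active means inhibition of 50% or more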;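 further: controls were vehicle for no effect and minimum signal wells for full effect; inactives centre near -20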
RecA intein inh – inhibitors of M. tuberculosis RecA intein splicing; P9WHJ3; cell-free RecA intein splicing, fluorescence; 0.75% of 290,000 active; inhibition, %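 (about 9 µM by stock and volumes)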; AID 2221; in the data active means inhibition above about 30%; inconclusive means no clear call, values can overlap the other calls;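 further: 0% = vehicle wells and 100% = reference inhibitor control wells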
Target sequence (P9WHJ3 whole entry, looked up): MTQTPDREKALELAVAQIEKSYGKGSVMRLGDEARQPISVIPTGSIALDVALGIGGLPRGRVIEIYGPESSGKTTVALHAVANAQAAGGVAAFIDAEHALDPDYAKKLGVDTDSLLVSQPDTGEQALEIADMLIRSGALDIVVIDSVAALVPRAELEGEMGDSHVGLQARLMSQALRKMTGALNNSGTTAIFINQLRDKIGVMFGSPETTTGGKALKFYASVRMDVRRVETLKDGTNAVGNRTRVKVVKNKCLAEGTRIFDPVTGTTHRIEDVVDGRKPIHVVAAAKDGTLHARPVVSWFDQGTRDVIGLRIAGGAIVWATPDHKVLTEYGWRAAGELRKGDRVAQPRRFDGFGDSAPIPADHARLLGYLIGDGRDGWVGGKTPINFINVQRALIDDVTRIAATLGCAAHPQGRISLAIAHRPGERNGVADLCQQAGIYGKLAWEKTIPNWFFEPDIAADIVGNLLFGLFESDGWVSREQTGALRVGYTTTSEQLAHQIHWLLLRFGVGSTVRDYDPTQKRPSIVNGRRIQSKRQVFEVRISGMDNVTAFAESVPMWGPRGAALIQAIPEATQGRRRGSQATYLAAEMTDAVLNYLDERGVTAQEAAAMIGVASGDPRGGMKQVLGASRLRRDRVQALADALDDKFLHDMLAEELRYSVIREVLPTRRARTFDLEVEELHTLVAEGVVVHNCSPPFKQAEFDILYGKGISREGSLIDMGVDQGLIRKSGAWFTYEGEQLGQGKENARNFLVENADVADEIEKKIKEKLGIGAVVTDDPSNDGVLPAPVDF
Mtb growth – M. tuberculosis H37Rv growth inhibitors, H37Rv strain (AID 1626); M. tuberculosis H37Rv growth inhibition; higher % means a stronger effect; inhibition, % at 10 µM, or IC50 in µM where a hit was titrated; 0.95% of 220,000 active;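 active means confirmed in a dose series; inconclusive means inhibition above 80% but not taken into the dose series; inactive means below 80% or under 30% at every dose of the series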;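 further: bacteria incubated seven days before Alamar blue readout; 0% = bacteria only wells and 100% = bacteria with antibiotic wells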
Mtb betalactam – beta-lactam sensitization of Mtb H37Rv; M. tuberculosis H37Rv growth with meropenem, percent inhibition; hits of this screen are not shown here; inhibition, % at 25 µM; 0.27% of 330,000 active; AID 434955;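 active means about 74% or more and at least 40 points above the plate without the antibiotic, then above 30% in a dose series; inconclusive means first-round hits that could not be retested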;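 further: growth measured after seven days incubation then overnight dye step; 0% = bacteria only wells and 100% = bacteria with antibiotic; twin plates without the antibiotic show which effects depend on it; some results filed as inactive read as strong as hits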
Arbovirus anti – blocks arbovirus infection; arbovirus infection cell-based antiviral screen; inhibition, % at 10 µM; 0.37% of 200,000 active; AID 1251;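 active means inhibition from about 30%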;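 further: bluetongue infection of BSR cells; cell survival read as ATP light after 72 h; 0% = infected wells without compound and 100% = uninfected wells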
Arbovirus anti repeat – recorded beside Arbovirus anti, whose call it bears; inhibition, %; measured here: 10K subset replicate screen; many hits read low in the repeat;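 first of two repeat runs on a subset; 0% = infected and 100% = uninfected wells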
Starred values were filed as active, the others as inactive; ? = inconclusive; nt = no result given.

SMILES	YopH inh	RecA intein inh	Mtb growth	Mtb betalactam	Arbovirus anti	others
Fc1ccc(-n2c(Cc3ccccc3)nnc2SCc2nc(-c3ccc(Cl)cc3)no2)cc1	-3	nt	4%	-9	-18
O=C(CC1SC(=Nc2ccccc2)N(CCc2c[nH]c3ccccc23)C1=O)Nc1ccccc1F (centres undefined)	-34	1.8	12%	11	-20
CCC(C)(C)NC(=O)CN(C(=O)c1snc(C(N)=O)c1N)c1ccc2c(c1)OCO2	-12	0.6	6%	-4	7
CC(C)CCNC(=O)C(CC(C)C)N(Cc1ccc2c(c1)OCO2)C(=O)c1snc(C(N)=O)c1N (centres undefined)	nt	3.9	-4%	-1	-12
O=C(NCc1ccc(F)cc1)c1noc2c1CCCC2	-12	0.8	-9%	0	2
Cc1ccc(C(=O)N2CCC3(CC2)Oc2ccc(F)cc2C(=O)C32CC(c3ccccc3)=NO2)s1 (centres undefined)	nt	5.6	7%	50	nt
CCN(CC)S(=O)(=O)c1ccc(S(=O)(=O)NCc2cccs2)cc1	nt	1.3	nt	-2	nt
O=C(CCN1CCN(c2ccccc2)CC1)Nc1nccs1	-23	2.8	0%	-1	1
CC(C)(C)C1CCc2sc(-c3nnc(CCl)o3)cc2C1 (centres undefined)	nt	51*	44%	99	-18
Cc1cc(NC(=O)c2ccc(Cl)cc2)no1	-13	5.1	-1%	-4	1
CSC1=NP(=S)(SC)N2CCCC2=C1C#N (centres undefined)	-22	2.9	3%	0	10
CCOC(=O)c1c(C)nc2sccn12	-23	-1.9	-4%	3	3
Cc1ccc2nc(C)cc(N/N=C/c3cccnc3)c2c1	nt	-2.2	-1%	-4	-2
CCCCC[C@H](O)/C=C/[C@@H]1[C@@H](C/C=C\CCCC(=O)O)[C@@H](O)C[C@H]1O	-21	-1.1	8%	5	17
COc1cc(OC)c(C(=O)OCC(=O)c2cc(C)n(CC3CCCO3)c2C)cc1OC (centres undefined)	nt	-0.7	-8%	-11	2
Cc1ccccc1CC(=O)N1CCCC(CCC(=O)N2CCN(c3ccccn3)CC2)C1 (centres undefined)	nt	1.2	-5%	-3	-3
O=c1[nH]c(/C=C\c2cccc(Cl)c2)nc(O)c1[N+](=O)[O-]	nt	1.3	nt	7	nt
O=C(CNc1ccccc1)N/N=C/c1ccc([N+](=O)[O-])cc1	-4	-0.2	6%	-3	-4
CCOC(=O)[C@@H]1[C@H]2COc3cc(OC)ccc3[C@@H]2N2C(=O)N(c3ccc(C)cc3)C(=O)[C@@]12C	nt	2.5	nt	-7	nt
CCS(=O)(=O)N1CCN(c2c(Cl)cccc2[N+](=O)[O-])CC1	-19	-0.1	2%	-4	11
COc1ccc(Br)cc1CN1CCCCCCC1	-3	-3.7	-2%	-4	4
Nc1ccc[n+](CC(=O)c2ccccc2)c1	nt	-0.5	nt	-4	nt
CCOc1ccc(-c2cc(C(=O)N3CCN(C)CC3)c3ccccc3n2)cc1	-25	-1.2	2%	-3	-1
CCOc1ccc(NC(=O)C(C)Sc2nnnn2C)cc1 (centres undefined)	-112	-1.3	0%	-1	5
CCOC(=O)Cc1cnc(NC(=O)NC(C(=O)OCC)(c2ccccc2)C(F)(F)F)s1 (centres undefined)	-24	-2.9	-4%	2	-5
CCN(CC)S(=O)(=O)c1ccc(C)c(NS(=O)(=O)c2cc(/C=C/C(=O)O)cc(OC)c2OC)c1	nt	2.4	-8%	-2	5
Cn1c(C(=O)NC2CC2)cc2c(=O)n(C)c3ccccc3c21	9	-2.1	-10%	-2	-9
C=CCc1cccc2cc(C(=O)Nc3cccc(C(=O)O)c3)c(=O)oc12	nt	-0.6	1%	72	nt
Cc1[nH]c2ccccc2c1/C=C(\C#N)C(=O)NCc1ccccc1	-26	-17	-1%	-2	-2
COCCn1c(C)cc(C(=O)COC(=O)c2ccccc2Br)c1C	nt	-0.3	17%	12	6
CCOC(=O)c1ccc(NC(=O)CCOc2ccc(OC)cc2)cc1	-6	-1.8	9.5µM*	98	1
O=C(NC1CCSc2ccccc21)c1cc(S(=O)(=O)N2CCOCC2)ccc1Cl (centres undefined)	nt	-0.2	nt	-8	nt
O=C(CNC(=O)c1ccco1)OCC(=O)c1ccccc1Cl	nt	0.7	-8%	0	-6
COc1cccc(CNC(=O)C2CCCN(S(=O)(=O)c3c(C)noc3/C=C/N(C)C)C2)c1 (centres undefined)	nt	-1.9	nt	-8	nt
Cc1ccc(CCNC(=O)CCc2nc3ccccc3[nH]2)cc1	-13	0.2	7%	-4	8
O=C(Cn1nnc2ccccc21)c1ccc([N+](=O)[O-])cc1	nt	-3.1	-2%	57	nt
O=C(Cc1cccs1)N1CCN(c2ccccn2)CC1	-3	-1.1	-2%	-12	-1	Arbovirus anti repeat=5
COc1ccc(OC)c(NC(=O)CC2C(=O)NCCN2C(=O)c2ccccc2)c1 (centres undefined)	nt	5.1	nt	-5	nt
O=[N+]([O-])c1cc(F)c2cccnc2c1O	nt	7.4	0%	78	nt
O=C(Nc1ccccc1N1CCN(C(=O)c2ccccc2)CC1)c1ccc(Cl)cc1	nt	7.2	9%	8	0
C[C@H](NC(=O)Cc1ccccc1)C(=O)N1CCC2(CC1)NCCc1[nH]cnc12	nt	1.1	nt	0	nt
CC(=O)c1cccc(NC(=O)c2sc3nc4n(c(=O)c3c2C)CCCC4)c1	nt	-5.5	nt	8	nt
CCc1ccc(C(=O)COC(=O)C(Cc2ccccc2)NC(=O)C2CCC(C)CC2)cc1 (centres undefined)	-22	-0.7	-3%	-1	2
CCOc1cc(NC(=O)c2cccs2)c(OCC)cc1NC(=O)c1ccco1	-27	1.8	-7%	1	3
O=C(NC(Cc1c[nH]c2ccccc12)C(=O)Nc1ccc(F)cc1)c1cccs1 (centres undefined)	-21	1.0	9%	3	-2
CCOC(=O)N1CCN(CCC(=O)Nc2ccc(Br)cc2)CC1	-3	-1.6	-17%	0	4
CCOC(=O)CCCNC(=O)CN1C(=O)NC(CCc2ccccc2)C1=O (centres undefined)	-40	-0.6	-8%	0	-4
COc1ccc(-c2noc(C(=O)NCc3ccccc3Cl)n2)cc1OC	nt	-0.8	4%	1	-6
CCOc1ccc(NC(=O)CCC(=O)NNC(=O)Nc2cccc(Cl)c2)cc1	nt	-3.9	30%	-4	-1
Cc1ccnn2c(-c3ccccc3)c3c(=O)n(C)c(=O)n(C)c3c12	-8	0.8	11%	nt	0
Cc1ccccc1NC(=O)c1sc2nc3c(c(-c4ccco4)c2c1N)CCC3	-1	2.3	7%	48	4
CCCN(CCC)C(=O)Cn1c(=O)n(CCCCC(=O)NCc2ccco2)c(=O)c2ccccc21	1	1.4	-8%	-10	2
CCOc1ccccc1CNC(=O)C(C)n1nc(C)c2c(C)n(-c3ccccc3)nc2c1=O (centres undefined)	nt	7.0	nt	-2	nt
S=C(Nc1ccc2cn[nH]c2c1)Nc1ccccc1Cl	-32	2.6	-11%	-6	1
Cc1noc(C)c1C(=O)OC(C(=O)NC1CCCC1)c1ccc(F)cc1 (centres undefined)	-29	-3.0	4%	-3	-7
CCCCNC(=O)Nc1ccccn1	2	2.8	-6%	2	-6
O=S(=O)(c1ccc(N2CCN(Cc3ccc4c(c3)OCO4)CC2)nc1)N1CCOCC1	nt	-3.0	6%	-8	-1
CC1CCN(S(=O)(=O)c2ccc(NC(=O)Cc3cccs3)cc2)CC1	11	nt	5%	?	0
CC(C)c1ccc(NC(=O)c2cc([N+](=O)[O-])ccc2N2CCOCC2)cc1	nt	-0.9	nt	99	nt
Cn1nc(C(C)(C)C)c(NC(=O)c2cccs2)c1C(C)(C)C	nt	-0.4	-6%	-2	nt

15 compounds already listed, sorted by number of heavy atoms, high to low:
SMILES	YopH inh	RecA intein inh	Mtb growth	Mtb betalactam	Arbovirus anti	others
O=C(CC1SC(=Nc2ccccc2)N(CCc2c[nH]c3ccccc23)C1=O)Nc1ccccc1F (centres undefined)	-34	1.8	12%	11	-20
CCN(CC)S(=O)(=O)c1ccc(C)c(NS(=O)(=O)c2cc(/C=C/C(=O)O)cc(OC)c2OC)c1	nt	2.4	-8%	-2	5
COc1cccc(CNC(=O)C2CCCN(S(=O)(=O)c3c(C)noc3/C=C/N(C)C)C2)c1 (centres undefined)	nt	-1.9	nt	-8	nt
CCOC(=O)Cc1cnc(NC(=O)NC(C(=O)OCC)(c2ccccc2)C(F)(F)F)s1 (centres undefined)	-24	-2.9	-4%	2	-5
CCC(C)(C)NC(=O)CN(C(=O)c1snc(C(N)=O)c1N)c1ccc2c(c1)OCO2	-12	0.6	6%	-4	7
COc1ccc(OC)c(NC(=O)CC2C(=O)NCCN2C(=O)c2ccccc2)c1 (centres undefined)	nt	5.1	nt	-5	nt
CCOc1ccc(NC(=O)CCC(=O)NNC(=O)Nc2cccc(Cl)c2)cc1	nt	-3.9	30%	-4	-1
CC(=O)c1cccc(NC(=O)c2sc3nc4n(c(=O)c3c2C)CCCC4)c1	nt	-5.5	nt	8	nt
CCOC(=O)c1ccc(NC(=O)CCOc2ccc(OC)cc2)cc1	-6	-1.8	9.5µM*	98	1
CCOC(=O)N1CCN(CCC(=O)Nc2ccc(Br)cc2)CC1	-3	-1.6	-17%	0	4
O=C(CNc1ccccc1)N/N=C/c1ccc([N+](=O)[O-])cc1	-4	-0.2	6%	-3	-4
CCOc1ccc(NC(=O)C(C)Sc2nnnn2C)cc1 (centres undefined)	-112	-1.3	0%	-1	5
O=C(Cc1cccs1)N1CCN(c2ccccn2)CC1	-3	-1.1	-2%	-12	-1	Arbovirus anti repeat=5
Nc1ccc[n+](CC(=O)c2ccccc2)c1	nt	-0.5	nt	-4	nt
CCOC(=O)c1c(C)nc2sccn12	-23	-1.9	-4%	3	3

The list goes on:
SMILES	YopH inh	RecA intein inh	Mtb growth	Mtb betalactam	Arbovirus anti	others
O=C(O)c1cccc(Cn2c(Cl)c(/C=N/NC(=O)c3ccc(O)cc3)sc2=O)c1	nt	0.6	-12%	2	nt
COCCCNC(=O)CCNS(=O)(=O)c1ccc(C)cc1	-14	nt	3%	0	-2
CC1CN(Cc2nc3c(c(=O)n(C)c(=O)n3C)n2CCc2ccccc2)CC(C)O1 (centres undefined)	-20	3.5	-1%	-4	nt
Cc1ccc(NC(C)C(=O)N/N=C/c2ccc([N+](=O)[O-])s2)cc1 (centres undefined)	nt	5.1	75%	100	-20
COc1ccc(CN(C)Cc2cc(=O)oc3cc(C)c(C(C)C)cc23)cc1OC	nt	12	nt	15	nt
COc1ccc(-c2nnc3n2C(C)(C)Cc2cc(OC)c(OC)cc2-3)cc1	0	nt	4%	nt	3
c1ccc(SCCCCNC2CCCC2)cc1	-18	-0.5	-9%	7	-1
COc1ccc(S(=O)(=O)N2CCCCCC2)cc1C(=O)OCC(=O)NC(N)=O	-40	-2.4	7%	2	1
CC(C)COc1ccc(C(=O)OCCN2CCOCC2)c(O)c1	-55	0.0	4%	-6	-3
COCOc1cc(O)c(C(=O)/C=C/c2ccc(OCOC)c(OCOC)c2)c(OCOC)c1	nt	0.3	-1%	-3	nt
NS(=O)(=O)c1cccc(NC(=O)c2cccc3c(Br)cccc23)c1	nt	-2.6	nt	3	nt
Cc1cc(C)nc(SC(C)C(=O)N/N=C/c2cccs2)n1 (centres undefined)	-38	2.2	-1%	-4	-4
CCCc1cc(=O)oc2c3c(cc(OCC(=O)NCc4ccncc4)c12)OC(C)(C)CC3	nt	3.3	nt	2	nt
COc1ccccc1N1CCN(S(=O)(=O)CCNC(=O)c2ccc(Br)o2)CC1	nt	0.8	nt	-3	nt
OC(CNCCc1ccc(Cl)cc1)COCc1ccco1 (centres undefined)	-46	11	12%	-1	-3
CCCCn1c(N)c(N(CC)C(=O)c2cccc(S(=O)(=O)N3CCCc4ccccc43)c2)c(=O)[nH]c1=O	nt	-0.9	nt	-6	nt
COc1ccccc1NC(=O)N[C@@H](Cc1c[nH]c2ccccc12)C(=O)NN	nt	-2.1	nt	-5	nt
COc1ccc2cc(C(=O)c3ccccc3)c(=O)oc2c1	-1	5.7	-1%	2	-4
COc1ccc(CC(C)N2CCN(Cc3ccccc3)CC2)cc1OC (centres undefined)	nt	-2.9	nt	-2	nt
CCn1c(CC(=O)Nc2ccccc2C)nnc1SCC(=O)NC1CCCC1	nt	-1.5	nt	6	nt
Cc1cc(C)n2c(Nc3ccc4c(c3)OCCO4)c(-c3ccccc3)nc2n1	-19	-0.7	-12%	-1	-8
COc1ccc(Nc2ncc(C#N)c(N)n2)c(OC)c1	nt	-0.1	-3%	-3	nt
CCn1c(=O)c(C(=O)NC(C)C)c(O)c2ccccc21	-25	4.5	1%	5	-10
COc1ccc2c(c1OC)CN1CCc3cc4c(cc3C1C2)OCO4 (centres undefined)	nt	-0.5	nt	11	nt

Only part of the results is shown; count on the stated rates, not on these rows.
